PABP FP inh: PABP-poly(A) binding inhibition; P11940; PABP-poly(A) RNA binding, fluorescence polarization; inhibition, % at 35 µM; 1% of 290,000 active;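 active means 50% or more with normal probe brightness, or confirmed in later tests; inconclusive means above 50% with abnormal brightness, or retests that disagree; inactive means below 50% or failed in later tests; about a fifth of its hits are not listed in these tables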;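 further: calls also rest on retests at 20 µM and on dose response follow-up; controls were probe without protein and protein plus probe with vehicle; some compounds called inactive have numbers as strong as hits; many hits fall short of the cut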
Target sequence (P11940 whole entry, looked up): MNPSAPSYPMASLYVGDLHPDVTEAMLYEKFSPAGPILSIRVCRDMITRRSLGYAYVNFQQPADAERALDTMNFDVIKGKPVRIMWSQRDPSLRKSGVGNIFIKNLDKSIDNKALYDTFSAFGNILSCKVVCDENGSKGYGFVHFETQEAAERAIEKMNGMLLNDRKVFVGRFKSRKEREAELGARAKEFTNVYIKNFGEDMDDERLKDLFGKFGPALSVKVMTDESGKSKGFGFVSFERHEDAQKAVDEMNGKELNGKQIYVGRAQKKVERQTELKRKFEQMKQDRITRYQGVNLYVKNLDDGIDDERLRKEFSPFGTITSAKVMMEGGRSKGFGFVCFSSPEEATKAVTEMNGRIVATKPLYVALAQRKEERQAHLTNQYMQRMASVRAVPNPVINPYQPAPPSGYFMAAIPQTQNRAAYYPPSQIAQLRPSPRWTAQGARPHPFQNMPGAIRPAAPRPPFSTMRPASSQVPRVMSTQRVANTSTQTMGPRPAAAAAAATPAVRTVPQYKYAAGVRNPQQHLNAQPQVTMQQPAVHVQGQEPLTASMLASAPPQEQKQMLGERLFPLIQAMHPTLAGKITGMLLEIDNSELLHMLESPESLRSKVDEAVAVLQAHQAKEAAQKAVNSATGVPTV
eIF4H FP inh: inhibitors of RNA binding by human eIF4H. eIF4H fluorescence polarization binding assay. inhibition, % at 35 µM. 0.94% of 290,000 active. AID 2012;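 active means 50% or more with normal probe brightness, or confirmed in later tests; inconclusive means above 50% with abnormal brightness, or retests that disagree; inactive means below 50% or failed in later tests; about a fifth of its hits are not listed in these tables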;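 further: calls also rest on retests at 20 µM and on dose response follow-up; 0% = protein and probe with vehicle and 100% = probe without protein; strong numbers were not always called active; many hits fall short of the cut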
MT1-MMP act inh: inhibitors of human MT1-MMP activation. HT1080 RFP-PRO-GFP cells, GFP/RFP ratio fluorescence, overnight; percent of plate control window, DMSO zero. 0.061% of 360,000 active. AID 651647. GFP/RFP ratio change, % at 20 µM;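 active means GFP/RFP ratio change of at least 30% with cell ATP level not reduced by more than half and red fluorescence within 50% of control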; further: strong numbers were not always called active
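Material: RFP-PRO-GFP reporter HT1080 cells. Dosing: single-point 20 µM compound, 1% DMSO. Controls: DMSO and RFP-L50D-GFP cell wells. Timing: cells overnight before dosing, compound overnight, 37 °C, 5% CO2. Measure: GFP/RFP fluorescence ratio.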
Yeast UUG start: modulators of start codon recognition fidelity in yeast; 0.13% of 350,000 active; S. cerevisiae UUG-firefly luciferase reporter, luminescence/redox ratio; activity score, % at 18.7 µM;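 active means replicate mean at a twofold rise or more, about +100% in these data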;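 further: firefly luciferase made from a UUG start codon reports start codon fidelity; reporter light over untreated wells divided by growth signal over untreated wells; some hits fall short of that in this replicate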
CSC inhib: cancer stem cell inhibition. inhibition, % at 7.5 µM. 1.1% of 300,000 active. cancer stem cell-like cells viability, luminescence;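 active means mean at 75% or more and at least half the replicates too; inconclusive means mean and replicates disagree; tested in HMLE shEcad cells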;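 further: 0% = median of negative and 100% = median of positive control wells; the first replicate is given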
HIV Env fusion: inhibitors of HIV Env-mediated cell fusion | HeLa-JRFL Env/CEM21 cell fusion, luciferase | inhibition, % at 12.3 µM | 1.1% of 360,000 active;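 active means mean replicate inhibition score of at least 50 and every replicate individually at or above 50; inconclusive means only one of the two criteria met; inactive means mean below 50 and not all replicates reaching 50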;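 further: 0% = plate neutral controls and 100% = maraviroc near 300 nM; one replicate is shown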
Rce1 inhib: inhibitors of yeast Ras-converting enzyme. Q03530. yeast membranes, quenched prenylated peptide cleavage fluorescence. calls only. 0.27% of 290,000 active;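 active means fall in fluorescence gain of 50% or more versus controls, with final raw signal at or below 3038400; inconclusive means same 50% fall but final raw signal above 3038400; inactive means fall in fluorescence gain under 50%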;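 further: plate controls were neutral control wells for no effect and wells lacking membranes for full effect; tested at 10 µM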
MT1-MMP act inh RFP: recorded beside MT1-MMP act inh, whose call it bears; RFP signal change, %; measured here: RFP expression control read;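 0 = vehicle wells; hits needed this value within 50% of zero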
* hit, by the source's call; i = inactive; ? = inconclusive; . = no result given; [ ] = remark or other dose.

SMILES	PABP FP inh	eIF4H FP inh	MT1-MMP act inh	Yeast UUG start	CSC inhib	HIV Env fusion	Rce1 inhib	others
C[C@]12CCC(=O)C[C@H]1CC[C@@H]1[C@@H]2CC[C@]2(C)[C@@H](O)CC[C@@H]12	.	.	.	.	1	.	.
NC(=O)CS(=O)C(c1ccccc1)c1ccccc1 (stereo not given)	-6	2	.	.	.	.	.
CCCCCCCCCOc1ccc2[nH]cc(CCN)c2c1	19	-1	.	.	.	.	.
CN1CC[C@]2(c3cccc(O)c3)Cc3nc4ccccc4cc3C[C@H]2C1	12	2	.	.	.	.	.
CCN(C(C)=O)c1cccc(-c2ccnc3c(C#N)cnn23)c1	-1	12	.	.	.	.	.
CC[C@@H]1C=CC=CC[C@H](C)[C@@H](O)[C@@H](C)C(=O)[C@H](C)[C@@H](O)[C@H](C)C(=O)[C@H](C)[C@@H](O)[C@H](C)C=CC(=O)O[C@H]2[C@@H](C)[C@@H](CC1)O[C@@]1(CC[C@@H](C)[C@@H](C[C@H](C)O)O1)[C@@H]2C	.	.	.	.	6	.	i
O=C(Cc1ccccc1)N1C[C@@H]2[C@H](c3ccccc31)[C@H](CO)N2Cc1ccccc1	.	.	.	-10	.	.	.
N#Cc1ccc(-c2ccc([C@H]3[C@@H](CO)N4CCCCN(C(=O)Cc5ccccc5)C[C@@H]34)cc2)cc1	.	.	.	0	.	.	.
COc1ccc(C#Cc2ccc([C@H]3[C@@H](CO)N4CCCCN(C(=O)Cc5ccccc5)C[C@@H]34)cc2)cc1	.	.	.	35	.	.	.
COc1cccc(-c2ccc([C@@H]3[C@H]4CN(C(=O)Cc5ccncc5)CCCCN4[C@H]3CO)cc2)c1	.	.	.	-6	.	.	.
N#Cc1cccc(-c2ccc([C@H]3[C@H](CO)N4CCCCN(C(=O)Cc5ccccc5)C[C@@H]34)cc2)c1	.	.	.	1	.	.	.
O=C(Cc1ccccn1)N1CCCCN2[C@H](C1)[C@H](c1ccc(-c3ccc(F)cc3)cc1)[C@@H]2CO	.	.	.	-8	.	.	.
N#Cc1ccc(-c2ccc([C@H]3[C@H](CO)N4CCCCN(C(=O)Cc5ccccc5)C[C@@H]34)cc2)cc1	.	.	.	-15	.	.	.
N#Cc1cccc(-c2ccc([C@H]3[C@@H](CO)N4CCCCN(C(=O)Cc5ccccc5)C[C@H]34)cc2)c1	.	.	.	-4	.	.	.
O=C(Cc1cccnc1)N1CCCCN2[C@H](C1)[C@@H](c1ccc(/C=C/c3ccccc3)cc1)[C@@H]2CO	.	.	.	-6	.	.	.
COc1ccc(C#Cc2ccc([C@@H]3[C@@H](CO)N4CCCCN(C(=O)Cc5cccnc5)C[C@@H]34)cc2)cc1	.	.	.	41	.	.	.
O=C(O)[C@@H]1[C@@H](CO)[C@@H]2Cn3c(ccc(-c4ccncc4)c3=O)[C@H]1N2C(=O)C1CCCCC1	.	.	.	42	.	.	.
C/C=C/c1ccc([C@H]2[C@@H](CO)N3CCCCN(C(=O)Cc4ccncc4)C[C@H]23)cc1	.	.	.	-11	.	.	.
C/C=C/c1ccc([C@H]2[C@H]3CN(C(=O)Cc4cccnc4)CCCCN3[C@H]2CO)cc1	.	.	.	-18	.	.	.
COc1ccc(C#Cc2ccc([C@@H]3[C@H]4CN(C(=O)Cc5ccccc5)CCCCN4[C@H]3CO)cc2)cc1	.	.	.	2	.	.	.
N#Cc1cccc(-c2ccc([C@@H]3[C@H]4CN(C(=O)Cc5ccccc5)CCCCN4[C@H]3CO)cc2)c1	.	.	.	4	.	.	.
N#Cc1cccc(-c2ccc([C@@H]3[C@H]4CN(C(=O)Cc5ccncc5)CCCCN4[C@H]3CO)cc2)c1	.	.	.	-15	.	.	.
O=C(Cc1ccccn1)N1CCCCN2[C@H](CO)[C@H](c3ccc(C#Cc4ccccc4)cc3)[C@@H]2C1	.	.	.	11	.	.	.
C/C=C/c1ccc([C@H]2[C@@H](CO)N3CCCCN(C(=O)Cc4ccncc4)C[C@@H]23)cc1	.	.	.	-5	.	.	.
C/C=C/c1ccc([C@@H]2[C@@H](CO)N3CCCCN(C(=O)Cc4ccncc4)C[C@H]23)cc1	.	.	.	-4	.	.	.
C/C=C/c1ccc([C@@H]2[C@@H](CO)N3CCCCN(C(=O)Cc4cccnc4)C[C@@H]23)cc1	.	.	.	-9	.	.	.
OC[C@H]1[C@H]2c3ccccc3NC[C@H]2N1Cc1cccnc1	.	.	.	-21	.	.	.
N#Cc1cccc(-c2ccc([C@H]3[C@@H](CO)N4CCCCN(C(=O)Cc5cccnc5)C[C@@H]34)cc2)c1	.	.	.	-3	.	.	.
O=C(Cc1ccccn1)N1CCCCN2[C@H](CO)[C@H](c3ccc(-c4ccccc4F)cc3)[C@@H]2C1	.	.	.	-5	.	.	.
O=C(Cc1ccncc1)N1CCCCN2[C@@H](CO)[C@@H](c3ccc(C#CC4(O)CCCC4)cc3)[C@@H]2C1	.	.	.	11	.	.	.
N#Cc1cccc(-c2ccc([C@H]3[C@@H](CO)N4CCCCN(C(=O)Cc5ccccc5)C[C@@H]34)cc2)c1	.	.	.	-6	.	.	.
COc1cccc(-c2ccc([C@H]3[C@@H](CO)N4CCCCN(C(=O)Cc5ccncc5)C[C@@H]34)cc2)c1	.	.	.	-3	.	.	.
O=C(Cc1ccccc1)N1CCCCN2[C@H](C1)[C@H](c1ccc(C#Cc3ccccc3)cc1)[C@@H]2CO	.	.	.	16	.	.	.
O=C(Cc1ccccc1)N1CCCCN2[C@@H](CO)[C@@H](c3ccc(C#Cc4ccccc4)cc3)[C@@H]2C1	.	.	.	2	.	.	.
CCCC#Cc1ccc([C@H]2[C@@H](CO)N3CCCCN(C(=O)Cc4ccccn4)C[C@H]23)cc1	.	.	.	13	.	.	.
CC=Cc1ccc2n(c1=O)C[C@@H]1[C@@H](CO)[C@H](C(=O)OC)[C@H]2N1CC1CC1 (mixture of isomers)	.	.	.	-5	.	.	.
OC[C@@H]1[C@H]2c3ccccc3NC[C@H]2N1Cc1cccnc1	.	.	.	-11	.	.	.
COc1ccc(-c2ccc([C@H]3[C@H](CO)N4CCCCN(C(=O)Cc5ccncc5)C[C@@H]34)cc2)cc1	.	.	.	3	.	.	.
O=C(Cc1ccncc1)N1CCCCN2[C@H](CO)[C@@H](c3ccc(C#Cc4ccccc4F)cc3)[C@H]2C1	.	.	.	0	.	.	.
O=C(Cc1ccccc1)N1C[C@@H]2[C@H](c3ccccc31)[C@@H](CO)N2Cc1ccccc1	.	.	.	-8	.	.	.
C/C=C/c1ccc([C@H]2[C@H]3CN(C(=O)Cc4ccncc4)CCCCN3[C@H]2CO)cc1	.	.	.	-5	.	.	.
O=C(Cc1ccccn1)N1CCCCN2[C@H](CO)[C@H](c3ccc(C#Cc4ccccc4)cc3)[C@H]2C1	.	.	.	0	.	.	.
Cc1ccccc1-c1ccc([C@@H]2[C@H](CO)N3CCCCN(C(=O)Cc4ccccn4)C[C@@H]23)cc1	.	.	.	-19	.	.	.
O=C(Cc1ccccc1)N1CCCCN2[C@H](CO)[C@@H](c3ccc(-c4ccccc4)cc3)[C@H]2C1	.	.	.	14	.	.	.
O=C(Cc1cccnc1)N1CCCCN2[C@H](CO)[C@@H](c3ccc(C#CC4CCCC4)cc3)[C@H]2C1	.	.	.	-9	.	.	.
O=C(Cc1ccncc1)N1CCCCN2[C@H](CO)[C@@H](c3ccc(C#CC4(O)CCCC4)cc3)[C@H]2C1	.	.	.	13	.	.	.
CCOC(=O)CNC(=O)N1Cc2cc(Br)ccc2-n2nncc2C1	.	.	.	.	.	6	.
CCC(=O)N1[C@@H]2Cn3c(ccc(-c4ccc(F)cc4)c3=O)[C@H]1[C@@H](C(=O)OC)[C@@H]2CO	.	.	.	.	.	-4[16.7 µM]	.
CC(C)(C)c1cc(O)ccc1O	.	.	.	.	.	13	.
C[C@H]1CNCCN1c1ccc(N2CC[C@@H](O)C2)c(C#N)c1	.	.	.	.	.	6	.
O=C(NCCN1CCC2(CC1)C(=O)NCN2c1ccccc1)c1ccc(F)cc1F	.	.	.	.	.	2	.
COC(=O)[C@H]1[C@H](CO)[C@H]2Cn3c(ccc(-c4ccccc4F)c3=O)[C@@H]1N2	.	.	.	.	.	6[16.7 µM]	.
CCCNC(=O)[C@H]1[C@H](CO)[C@H]2Cn3c(cccc3=O)[C@H]2N1C	.	.	.	.	.	16[16.7 µM]	.
O=C(NCCN1CCC2(CC1)C(=O)NCN2c1ccccc1)c1cccc2c1-c1ccccc1C2=O	.	.	.	.	.	-9	.
O=C(O)[C@@H]1[C@@H](CO)[C@@H]2Cn3c(ccc(-c4ccccc4F)c3=O)[C@H]1N2C(=O)c1cccnc1	.	.	.	.	.	1[16.7 µM]	.
COC(=O)C1=C(c2ccc(OC(F)(F)F)cc2)C[C@@H]2CC[C@H]1N2C(=O)NCc1ccco1	.	.	.	.	.	26	.
COC(=O)[C@H]1[C@H](CO)[C@H]2Cn3c(ccc(-c4cccnc4)c3=O)[C@@H]1N2S(=O)(=O)c1ccccc1C	.	.	.	.	.	?	.
COC(=O)[C@@H]1[C@@H](CO)[C@@H]2Cn3c(ccc(-c4ccccc4OC)c3=O)[C@H]1N2Cc1ccccc1	.	.	.	.	.	16[16.7 µM]	.
COC(=O)C[C@H]1CC[C@@H]2NC[C@H](O)COC[C@H]2O1	.	.	.	.	.	-23[16.7 µM]	.
COC(=O)[C@@H]1[C@@H](CO)[C@@H]2Cn3c(cccc3=O)[C@H]1N2C(=O)C1CC1	.	.	.	.	.	-2[16.7 µM]	.

Reprinted from the part before: 3 entries, then new ones.
SMILES	PABP FP inh	eIF4H FP inh	MT1-MMP act inh	Yeast UUG start	CSC inhib	HIV Env fusion	Rce1 inhib	others
COC(=O)[C@@H]1[C@@H](CO)[C@@H]2Cn3c(ccc(-c4ccccc4OC)c3=O)[C@H]1N2Cc1ccccc1	.	.	.	.	.	16[16.7 µM]	.
COC(=O)C[C@H]1CC[C@@H]2NC[C@H](O)COC[C@H]2O1	.	.	.	.	.	-23[16.7 µM]	.
COC(=O)[C@@H]1[C@@H](CO)[C@@H]2Cn3c(cccc3=O)[C@H]1N2C(=O)C1CC1	.	.	.	.	.	-2[16.7 µM]	.
O=C(Nc1ccccc1)N1Cc2cc(Br)ccc2-n2nncc2C1	.	.	.	.	.	11	.
O=C(NCCN1CCC2(CC1)C(=O)NCN2c1ccccc1)c1ccc2ccccc2c1	.	.	.	.	.	?	.
Cc1ccccc1C(=O)NCCN1CCC2(CC1)C(=O)NCN2c1ccccc1	.	.	.	.	.	12	.
O=c1[nH]c2cc(Cl)ccc2n1C1CCN(Cc2ccc(-c3nc4ccccc4nc3-c3ccccc3)cc2)CC1	.	.	.	.	.	-7	.
CC=Cc1ccc2n(c1=O)C[C@H]1[C@H](CO)[C@@H](C(=O)OC)[C@@H]2N1S(=O)(=O)c1cccc(C)c1 (mixture of isomers)	.	.	.	.	.	-2[16.7 µM]	.
CN1CCCCC1Cc1ccccc1 (stereo not given)	.	.	2	.	.	.	.	MT1-MMP act inh RFP=6
CC1([N+](=O)[O-])COP(=O)(Nc2cccc(F)c2)OC1 (stereo not given)	.	.	-2	.	.	.	.	MT1-MMP act inh RFP=4
COc1cc2cc(C(=O)N3CC(COS(C)(=O)=O)c4ccc(O)cc43)[nH]c2c(OC)c1OC (stereo not given)	.	.	-14	.	.	.	.	MT1-MMP act inh RFP=-18
CC1=C(C)CN2CC(C#N)=C(N)C2C1 (stereo not given)	.	.	-1	.	.	.	.	MT1-MMP act inh RFP=9

A portion of the library; the hit share may differ from the screen's.
